Screening results as filed in PubChem BioAssay.
Ba CapD inh – inhibitors of Bacillus anthracis CapD enzyme; purified CapD enzyme, fluorescence intensity read-out; active compounds read low; some hits fall short of the stated cut; z-score (test concentration not listed); 0.23% of 140,000 active;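 active = z-score under -4 in either of two replicates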;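 also: stock transfer was 100 nL into about 40 µL; score is relative to mean and spread of the plate; one replicate is shown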
AID504770 – E. coli YBA685 growth inhibition, screen for V. cholerae RctB inhibitors; E. coli YBA685 rctB-dependent plasmid, OD600 growth, 3 h; active compounds read low; z-score (test concentration not listed); 0.27% of 130,000 active;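 active = z-score under -2 on both plates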;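 also: wells of about 30 µL received 100 nL stock; score is relative to mean and SD of the test wells; the first replicate is given; strong numbers were not always called active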
An asterisk follows results filed as active. Random draw from the library; overall some 0.37% were active at least once.

How did COC(=O)c1ccc(N2N=C(C)/C(=C/c3ccc(-c4ccc(S(N)(=O)=O)cc4)o3)C2=O)cc1 do in these assays?
Ba CapD inh: -0.78

How did CN(C)c1ccc(-c2[nH]c(=S)[nH]c(=O)c2C#N)cc1 do in these assays?
Ba CapD inh: 0.14; AID504770: -0.75

What do the screens show for `C=CCn1c(SCC(=O)Nc2ccccc2)nnc1C(CC(C)C)NC(=O)c1cccs1` (stereo not given)?
Ba CapD inh: -0.96; AID504770: 0.6

What do the screens show for `CCN(C(=O)COc1ccccc1C(N)=O)c1ccccc1`?
Ba CapD inh: -0.46; AID504770: -0.15

How did CCCNC(=S)Nc1cc(OC)cc(OC)c1 do in these assays?
Ba CapD inh: 0.36; AID504770: 1.1

Results for CCN1CCCC1CNc1nsc2ccccc12 (stereo not given) ?
AID504770: -0.8

How did O=C(Nc1ccccc1C(F)(F)F)NC1CCCCC1 do in these assays?
Ba CapD inh: 0.32; AID504770: -0.3

What do the screens show for `CC(OC(=O)C1COc2ccccc2O1)C(=O)c1ccccc1` (stereo not given)?
AID504770: -0.6

What do the screens show for `Cc1ccc(C(=O)NNC(=O)C2CCN(Cc3ccccc3)CC2)cc1`?
Ba CapD inh: -0.255

What do the screens show for `Cn1cccc1C(C#N)c1cccc(F)c1C#N` (stereo not given)?
Ba CapD inh: 0.485; AID504770: 0.25

How did NC(=O)c1ccccc1NC(=O)CSc1ccccn1 do in these assays?
Ba CapD inh: 0.705; AID504770: -0.8

What do the screens show for `Cc1c(/C=C(\C#N)C(=O)NCc2ccccc2)cc(C#N)n1C`?
AID504770: -0.7

Results for Cn1c(=NC(=O)c2ccc(=O)n(Cc3ccccc3)n2)sc2ccccc21 ?
AID504770: 0.7

What do the screens show for `COC(CNC(=O)c1c[nH]c2ccc(S(=O)(=O)N3CCC(C)CC3)cc2c1=O)OC`?
Ba CapD inh: -0.415; AID504770: 2.05

Results for CCC1CCCCN1Cc1c(O)ccc2cc(-c3nc(C)cs3)c(=O)oc12 (stereo not given) ?
Ba CapD inh: inactive; AID504770: 0.45

Results for O=C(CCN1C(=O)C2(OCCO2)c2ccccc21)c1ccccc1 ?
Ba CapD inh: -0.435

How did CC1CCCN(C(=O)c2cc(=O)c3ccccc3o2)C1 (stereo not given) do in these assays?
Ba CapD inh: -0.285; AID504770: 0.7

How did O=C(Nc1ccnn1Cc1ccc(Br)cc1)[C@@H]1CCCN1C(=O)c1cccs1 do in these assays?
AID504770: 1.95

Results for Cc1ccc(C(C)C)cc1OCC(=O)N=c1sccn1C ?
AID504770: -0.4

Results for NC(=O)Nc1ccc(C(=O)OCC(=O)Nc2ccc(F)cc2F)cc1 ?
AID504770: 0.5

How did CCC(Sc1nc2n[nH]c(C)c2c(=N)n1-c1cccc(Cl)c1C)C(=O)N(CC)CC (stereo not given) do in these assays?
Ba CapD inh: -0.255; AID504770: -0.45

What do the screens show for `CCOc1ccc(Cc2c(Cl)nc(SC)nc2Cl)cc1`?
Ba CapD inh: -0.055; AID504770: -0.65

Results for CCOc1ncccc1C(=O)NCCOc1ccc(C)cc1 ?
AID504770: -0.7

Results for COCCN1C(=O)/C(=C\c2cc(OC)ccc2OC)C(C(=O)OC)=C1C ?
Ba CapD inh: 0.065; AID504770: 0.35

Results for COc1ccc(/C=C2\SC(N)=NC2=O)cc1O ?
Ba CapD inh: 0.525; AID504770: -0.45

What do the screens show for `CCN(Cc1ccccc1)C(=O)c1cc2cccnc2n(C)c1=O`?
AID504770: -2.35

How did CC12C=CC(C)(O1)C1C(=O)N(c3ccccc3C#N)C(=O)C12 (stereo not given) do in these assays?
Ba CapD inh: -0.255

Results for Nc1ccc(Oc2ncccn2)cc1 ?
Ba CapD inh: -0.47; AID504770: -0.5

What do the screens show for `CCc1c(O)nc(SCC(=O)NCC2CCCO2)[nH]c1=O` (stereo not given)?
Ba CapD inh: -0.35; AID504770: -0.55

How did CS(=O)(=O)N(CC(O)Cn1c2ccccc2c2ccccc21)c1ccccc1 (stereo not given) do in these assays?
AID504770: -0.45

What do the screens show for `COc1ccc2cc([C@H](C)CO)ccc2c1`?
AID504770: 0.7

Results for CCN1CCN(c2ccc(N3CCN(C(=O)c4cc(OC)c(OC)c(OC)c4)CC3)nn2)CC1 ?
AID504770: -1.15

How did Cn1c(CNC(=O)c2ccccc2F)nnc1SCC(=O)N1CCN(c2ccccc2)CC1 do in these assays?
Ba CapD inh: -0.235; AID504770: -1.15

Results for CC1CN(Cc2c(O)ccc3c(=O)c(-c4ccccc4Cl)coc23)CC(C)O1 (stereo not given) ?
Ba CapD inh: 11; AID504770: 2.15

Results for S=C(CN1CCCC1=S)NCCc1ccccc1 ?
Ba CapD inh: -0.25; AID504770: -1

Results for CCOC(=O)C1=C(C)NC2=C(C(=O)C(C(=O)OCC)C(c3ccccc3OC)C2)C1c1ccc([N+](=O)[O-])cc1 (stereo not given) ?
Ba CapD inh: -0.705

How did COC(=O)c1ccc(OC(=O)Cc2coc3cc(OC)ccc23)cc1 do in these assays?
AID504770: -0.05

Results for Cc1c(-c2cccc(NC(=O)c3cccc(Cl)c3)c2)nc2ncccn12 ?
Ba CapD inh: 108; AID504770: -0.6

What do the screens show for `N#CC1=C(N)OC2=C(C(=O)CC(c3ccco3)C2)C1c1cn[nH]c1-c1ccc(F)cc1` (stereo not given)?
Ba CapD inh: -0.16

What do the screens show for `CC(C(=O)N1CCCc2ccccc21)N1CCN(C(=O)c2ccccc2)CC1` (stereo not given)?
AID504770: -0.1

How did O=C1N(O)C2(C=CCCC2)/C(=N/O)C12CCCCC2 (stereo not given) do in these assays?
Ba CapD inh: -0.13; AID504770: -1.25

How did CCC(NC(=O)COc1ccc(-n2cnnn2)cc1)c1ccc(Br)cc1 (stereo not given) do in these assays?
AID504770: -0.45

How did O=C(NCCO)C(O)(c1ccccc1)c1ccccc1 do in these assays?
Ba CapD inh: -0.085; AID504770: -0.65

How did CN(C)c1ccc(P(=S)(N(C)C)N(C)C)cc1 do in these assays?
AID504770: -0.25

Results for CC1=Nn2c(nc3sc(C)c(C)c3c2=O)SC1 ?
Ba CapD inh: -0.365; AID504770: -0.7

How did CN1CCN(C(=O)c2ccco2)CC1 do in these assays?
Ba CapD inh: 0.115; AID504770: -0.1

Results for Cc1nc2ccc(C(=O)NCc3ccccc3)cc2nc1C ?
Ba CapD inh: -1.26; AID504770: -0.7

What do the screens show for `CC(=O)NCc1cc(-c2nn(C)c(=O)c3ccccc23)ccc1C`?
Ba CapD inh: -0.165; AID504770: 1.75

Results for O=C(Nc1ccccc1C(=O)NC1CCCCNC1=O)c1cccs1 (stereo not given) ?
Ba CapD inh: 1.61

What do the screens show for `Cc1cc(C(=O)N2CCC(Cc3ccccc3)CC2)c(C)o1`?
Ba CapD inh: -0.535; AID504770: 0.15

Results for COc1ccc(CCNC(=O)C2CCCN(C(=O)N(C)C)C2)c(OC)c1 (stereo not given) ?
Ba CapD inh: 0.275; AID504770: 1.95

What do the screens show for `N#Cc1c(NC(=O)CSc2nnc3ccccn23)sc2c1CCCC2`?
Ba CapD inh: 0.32; AID504770: -0.3

Results for COC(=O)c1cc2c(s1)CS(=O)C2 (stereo not given) ?
Ba CapD inh: 0.715; AID504770: 1.7

Results for N#Cc1ccc(COC(=O)CSC2CCS(=O)(=O)C2)cc1 (stereo not given) ?
AID504770: -0.5

How did Cc1ccc2cc3cc(C(=O)N4CCCCC4C)oc3nc2c1 (stereo not given) do in these assays?
Ba CapD inh: 8.81; AID504770: 0.1

What do the screens show for `N#Cc1nc2c(-c3nc4ccccc4[nH]3)c(N)n(Cc3ccccc3)c2nc1C#N`?
AID504770: -0.3

How did Cc1cc(C)c(C#N)c(SCSCc2ccccc2)n1 do in these assays?
Ba CapD inh: -1.72; AID504770: -0.75

How did COC(=O)c1sc(-c2cccs2)cc1NS(=O)(=O)c1ccccc1 do in these assays?
Ba CapD inh: 41.9; AID504770: 1

How did Cc1cc(Cl)c(S(=O)(=O)Nc2ccccc2)cc1OCC(=O)Nc1nncs1 do in these assays?
Ba CapD inh: 0.47; AID504770: -0.55

Results for O=S(=O)(c1ccc(F)cc1)N1CCC(c2nc3ccccc3s2)CC1 ?
Ba CapD inh: -0.31

Results for O=C(O)C1CCCN1c1nc(C(F)(F)F)nc2ccccc12 (stereo not given) ?
Ba CapD inh: -0.86; AID504770: -0.45

How did Cc1ccccc1-n1nc2c(c1NC(=O)CC(C)C)CS(=O)C2 (stereo not given) do in these assays?
Ba CapD inh: -0.615; AID504770: 0.3

What do the screens show for `Cc1nc(C)c(C(=O)Nc2ccccc2)s1`?
AID504770: 0.15

What do the screens show for `CCOC(=O)N/N=C(\C)c1ccc(OC)cc1`?
Ba CapD inh: 0.5

What do the screens show for `CCC1CCCCN1C(=O)CCN1C(=O)/C(=C/c2cc(OC)c(OC)c(OC)c2)SC1=S` (stereo not given)?
Ba CapD inh: -0.15

Results for CC1CCc2c(sc3nc(SCc4nc(-c5ccccc5)no4)n(C)c(=O)c23)C1 (stereo not given) ?
Ba CapD inh: 0.02; AID504770: -0.65

Results for CN(C(=O)Cc1cccs1)c1ccccc1 ?
Ba CapD inh: 0.32; AID504770: -0.25

Results for CCOC(=O)N1CCN(C(=O)c2ccc3c(=O)n(Cc4ccc(OC)cc4)c(=S)[nH]c3c2)CC1 ?
Ba CapD inh: -0.555

Results for COc1ccc(C)cc1CCN ?
AID504770: -0.2

How did COC(CN=Cc1cc(Cl)cc(Cl)c1O)OC do in these assays?
Ba CapD inh: -2.12; AID504770: -1.25

How did COc1cccc(NC(=O)c2cccc(OC)c2)c1 do in these assays?
Ba CapD inh: -0.045; AID504770: -0.45

What do the screens show for `Cc1ccc(C)c(-c2nnc(NC(=O)Cc3ccccc3)o2)c1`?
AID504770: -1.25

What do the screens show for `CN(C)S(=O)(=O)c1ccc2oc(=S)[nH]c2c1`?
AID504770: 1.3

Results for COC(=O)CN1C(c2ccc(OC)cc2)=Nc2ccc(Br)cc2C1c1ccccc1 (stereo not given) ?
Ba CapD inh: -0.32

How did O=C1/C(=C\Nc2ccccc2F)S(=O)(=O)N(Cc2ccc(Cl)cc2)c2ccccc21 do in these assays?
Ba CapD inh: -0.68; AID504770: -1.9

How did CC(=O)NCCC(=O)Nc1nccs1 do in these assays?
AID504770: 0.95

Results for CCN(CC)c1ccc(C(F)(F)F)cc1N ?
AID504770: 0.75

Results for Cc1cc(C)nc(N2CCC(C(=O)O)CC2)n1 ?
Ba CapD inh: 11.6

How did NC1=NC(=O)C(Cc2ccc(OC(F)(F)F)cc2)S1 (stereo not given) do in these assays?
Ba CapD inh: -0.265; AID504770: 1.4

How did COc1ccc(CCN2C(=O)CSC2c2ccccc2[N+](=O)[O-])cc1OC (stereo not given) do in these assays?
Ba CapD inh: 0.195

Sorted by length of the SMILES (ascending): 11 of the compounds above
Results for COc1ccc(C)cc1CCN ?
AID504770: -0.2

How did CC(=O)NCCC(=O)Nc1nccs1 do in these assays?
AID504770: 0.95

Results for CCN(CC)c1ccc(C(F)(F)F)cc1N ?
AID504770: 0.75

What do the screens show for `CCOC(=O)N/N=C(\C)c1ccc(OC)cc1`?
Ba CapD inh: 0.5

How did COc1cccc(NC(=O)c2cccc(OC)c2)c1 do in these assays?
Ba CapD inh: -0.045; AID504770: -0.45

Results for O=C(O)C1CCCN1c1nc(C(F)(F)F)nc2ccccc12 (stereo not given) ?
Ba CapD inh: -0.86; AID504770: -0.45

What do the screens show for `Cc1ccc(C)c(-c2nnc(NC(=O)Cc3ccccc3)o2)c1`?
AID504770: -1.25

How did Cc1ccccc1-n1nc2c(c1NC(=O)CC(C)C)CS(=O)C2 (stereo not given) do in these assays?
Ba CapD inh: -0.615; AID504770: 0.3

How did COc1ccc(CCN2C(=O)CSC2c2ccccc2[N+](=O)[O-])cc1OC (stereo not given) do in these assays?
Ba CapD inh: 0.195

Results for CC1CCc2c(sc3nc(SCc4nc(-c5ccccc5)no4)n(C)c(=O)c23)C1 (stereo not given) ?
Ba CapD inh: 0.02; AID504770: -0.65

How did O=C1/C(=C\Nc2ccccc2F)S(=O)(=O)N(Cc2ccc(Cl)cc2)c2ccccc21 do in these assays?
Ba CapD inh: -0.68; AID504770: -1.9

Additional records.
How did CCOC(=O)c1c(NC(=O)CSc2nnc(-c3ccco3)o2)sc(C)c1C do in these assays?
Ba CapD inh: 2.02; AID504770: -0.95

How did Cn1cc(-c2ccc(C(=O)NCC3CCCO3)cn2)cn1 (stereo not given) do in these assays?
Ba CapD inh: 1.43

Results for O=C(OCc1cc(=O)n2cc(Br)ccc2n1)c1ccc2c(=O)n3c(nc2c1)CCC3 ?
AID504770: -0.2

What do the screens show for `CC(C)C(=O)NCCCc1ccccc1`?
Ba CapD inh: 0.13; AID504770: -0.7

What do the screens show for `Cc1ccc2[nH]c(=O)c(-c3nc4c(C)cccn4c3NCc3ccco3)cc2c1`?
AID504770: 0.05

Results for CN(C)c1ccc(C(CNC(=S)NCc2ccco2)c2c[nH]c3ccccc23)cc1 (stereo not given) ?
AID504770: 1.65

What do the screens show for `O=C(O)CCNCc1cccs1`?
Ba CapD inh: 0.285; AID504770: -2.4

What do the screens show for `Cc1ccc(NC(=O)Cn2c(=O)n(-c3ccc(CC(=O)NCc4ccco4)cc3)c(=O)c3ccccc32)cc1`?
Ba CapD inh: -0.44; AID504770: 2.05

What do the screens show for `O=C(COC(=O)c1ccccc1)Nc1ccc(F)c(Cl)c1`?
Ba CapD inh: -1.06; AID504770: 2.2

Results for CCOC(=O)C(C)N1CC(=O)N(c2ccccc2)C1=O (stereo not given) ?
Ba CapD inh: 0.26; AID504770: -0.4

How did O=C(NCCN1C(=O)C2C3C=CC(C3)C2C1=O)NCc1ccccc1 (stereo not given) do in these assays?
Ba CapD inh: -0.78; AID504770: 0.45

Results for CC(=O)NCC(=O)N(CCc1c[nH]c2ccccc12)C1(C(=O)Nc2c(C)cccc2C)CCCCC1 ?
Ba CapD inh: -0.27

How did COc1ccc(C)cc1NC(=O)c1cc(S(=O)(=O)N2CCCc3ccccc32)ccc1F do in these assays?
Ba CapD inh: -0.305
